Screening data (PubChem BioAssay)
FGF22 binding: binders of recombinant human FGF22 by thermal shift. Q9HCT0. SYPRO orange fluorescence; percent of sucrose octasulfate shift, DMSO zero. calls only at 9.99 µM. actives 1.5% (n = 340,000). AID 651658;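 active = melting point raised past a set limit in the mean and every replicate; inconclusive = no clear call; three in four hits are not shown here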
Target sequence (Q9HCT0 whole entry, looked up): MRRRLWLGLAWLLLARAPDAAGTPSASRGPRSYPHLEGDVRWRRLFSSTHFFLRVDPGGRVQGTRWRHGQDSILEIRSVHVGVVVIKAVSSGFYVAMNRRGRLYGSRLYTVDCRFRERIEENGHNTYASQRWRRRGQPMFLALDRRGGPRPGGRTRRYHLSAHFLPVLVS
Ecoli growth: blocks Escherichia coli growth; actives 0.21% (n = 330,000); OD600 absorbance (no concentration beside the values); OD600, 23 h; hits give low values;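 active = OD600 absorbance below the run mean of sample wells minus 3.6 SD, in any replicate, cut at about 0.56 in these data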;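 note: stock transfer was 300 nL into about 60 µL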
HNF4A DNA FP: change in binding of human HNF4 alpha to DNA; activity change, % at 10 µM; P41235; HNF4a-FITC DNA binding, fluorescence polarization, 1 h; actives 0.3% (n = 360,000); in the data active = activity change above about 30%, passing the limit was not always enough;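 note: controls were the assay level and a saturating level of protein; the project sought stronger binding though the title names inhibitors; some compounds called inactive have numbers as strong as hits; positive values seem to mean higher polarization but the record does not say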
ALR inh: blocks human ALR sulfhydryl oxidase activity; P55789; purified ALR, DTT oxidation, H2O2 HRP-luminol luminescence; inhibition, % (concentration not given with the values); actives 3.8% (n = 290,000);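 active = mean and each replicate at 75% or more; inconclusive = only one of the two met; inactive = neither met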;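 note: stock transfer was 7.5 nL into about 7.5 µL; 0% = neutral wells and 100% = wells with inactivated enzyme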
Target sequence (P55789 whole entry, looked up): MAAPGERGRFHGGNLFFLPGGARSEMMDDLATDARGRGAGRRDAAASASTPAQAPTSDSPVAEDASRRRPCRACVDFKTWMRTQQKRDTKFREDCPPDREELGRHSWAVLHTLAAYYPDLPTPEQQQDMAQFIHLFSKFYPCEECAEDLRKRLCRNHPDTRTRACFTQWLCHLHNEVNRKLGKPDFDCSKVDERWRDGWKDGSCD
Vif A3G: HIV-1 Vif–A3G interaction blockers – biochemical, TR-FRET, GST-Vif 1-94, biotin-A3G peptide, dose response retest, primary screen (AID 1117319); TR-FRET GST-Vif / biotin-A3G peptide binding; higher % means a stronger effect; test concentration not given here; strong numbers were not always called active; inhibition, %; hits with a dose series show IC50 in µM; actives 0.57% (n = 260,000);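 active = above the screen mean plus three standard deviations and confirmed in dose response; inconclusive = results disagree or hit not tested in dose response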;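 note: Vif residues 1-94 fused to GST binding biotinylated APOBEC3G peptide 110-148; 0% = full assay without inhibitor and 100% = GST in place of GST-Vif; retest series ran down from 100 µM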
rRNA inh HTS: inhibits bacterial ribosomal RNA function over humanized ribosomes; GFP signal change (wild-type ribosome), % (no concentration beside the values); AID 720706; actives 1.6% (n = 350,000); E. coli WT GFP vs humanized-ribosome RFP mutants, fluorescence, 24 h; hits give low values; DMSO median 0, no signal -100;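 active = significant combined selectivity score with lowered wild-type GFP, culture density cut under 30%, mutant RFP and density less affected; inactive = any of these conditions unmet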; note: one replicate is shown; some compounds called inactive have numbers as strong as hits
MLL AF4-AF9 inh: MLL-AF4/AF9 protein interaction inhibition; P42568; AlphaScreen, biotin-AF4 peptide binding to FLAG-AF9; inhibition, % at 10 µM; actives 0.47% (n = 350,000); AID 651704;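 active = every replicate reaching a set inhibition limit, whatever the replicate mean, cut at about 25% in these data; inconclusive = mean inhibition reaches that limit but some replicates miss it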;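 note: 0% = plate neutral control median and 100% = total signal loss; the record names both 10 and 1 µM as test concentration; the first replicate is given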
Target sequence (P42568 whole entry, looked up): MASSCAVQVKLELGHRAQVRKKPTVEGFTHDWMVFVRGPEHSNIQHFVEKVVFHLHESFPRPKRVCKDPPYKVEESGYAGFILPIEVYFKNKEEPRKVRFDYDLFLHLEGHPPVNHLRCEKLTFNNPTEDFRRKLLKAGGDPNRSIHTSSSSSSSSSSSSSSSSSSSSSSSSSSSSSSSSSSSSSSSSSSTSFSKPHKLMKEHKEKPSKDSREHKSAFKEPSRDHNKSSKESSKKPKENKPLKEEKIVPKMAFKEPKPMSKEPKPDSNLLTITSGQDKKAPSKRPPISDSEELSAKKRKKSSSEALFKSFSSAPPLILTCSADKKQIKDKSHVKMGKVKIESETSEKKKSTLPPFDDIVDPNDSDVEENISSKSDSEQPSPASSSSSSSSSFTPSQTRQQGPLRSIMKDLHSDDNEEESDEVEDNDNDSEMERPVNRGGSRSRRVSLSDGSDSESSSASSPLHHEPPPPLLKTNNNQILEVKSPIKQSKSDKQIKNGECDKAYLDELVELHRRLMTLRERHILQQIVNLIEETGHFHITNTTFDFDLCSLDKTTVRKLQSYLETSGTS
rRNA inh HTS OD600: further read-out of rRNA inh HTS, marked with its call; OD600 change, %; measured here: OD600 growth;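 optical density of the mix in the first replicate; 0 = DMSO median and -100 = no signal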
rRNA inh HTS RFP: second read-out of rRNA inh HTS, no call of its own (marks repeat the call); RFP signal change, %; measured here: RFP humanized mutant strains;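 first replicate; 0 = DMSO median and -100 = no signal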
* marks the source's active call; other numbers are inactive results; i = inactive; ? = inconclusive; / = no result given; & = joins results of further samples.

SMILES | FGF22 binding | Ecoli growth | HNF4A DNA FP | ALR inh | Vif A3G | rRNA inh HTS | rRNA inh HTS OD600 | rRNA inh HTS RFP | MLL AF4-AF9 inh
CC(=O)/C(C(=N)N1CCN(Cc2ccccc2)CC1)=C(\C)O | / | 0.76 | -2.1 | -12 | 13% | / | / | / | /
CC(=O)OCC[C@H](NS(=O)(=O)OCC(Cl)(Cl)Cl)c1ccccc1 | i | / | 0.7 | -18 | / | 2 | -2 | 6.3 | -14
CC(C)c1ccccc1NC(=S)N1CCN(Cc2ccc3c(c2)OCO3)CC1 | i | 0.65 | -3.8 | -3 | 3% | 0 | -13 | -4.3 | 1.5
NC(=O)c1ccc(NC(=O)CN2CCN(c3ccc(Cl)cc3)CC2)cc1 | i | 0.7 | -0.5 | / | 8% | 10 | 15 | -1.1 | -4.0
O=C(NCc1ccc(N2CCCC2=O)cc1)c1cccc(Cl)c1 | i | 0.71 | -0.8 | 1 | 31% | -2 | 2 | -0.6 | -1.0
CC(C)c1ccc(NC2CCCN(C(=O)c3ccc4nccnc4c3)C2)cc1 (stereo not drawn) | i | / | -0.6 | 50 | / | -13 | -9 | -2.3 | -4.4
CO[C@H]1CC[C@H]2CCN(C)C(=O)[C@@H](C)[C@H](OC)CN(C)C(=O)c3cc(C#N)ccc3OC[C@H]1O2 | i | / | / | / | / | 1 | 6 | -1.9 | -1.6
Cc1ccccc1NCN1C(=O)C2C3C=CC(C3)C2C1=O (stereo not drawn) | / | 0.63 | -0.9 | 14 | -6% | / | / | / | /
COc1ccc2o/c(=N/NC(=O)c3cccs3)c(C(N)=O)cc2c1 | i | / | 15 | 0 | -1% | 13 | 12 | 2.7 | -2.7
CS(=O)(=O)N1CCc2cc(C(=O)O)ccc21 | / | 0.71 | -1.1 | 3 | -1% | / | / | / | /
COc1ccc(NC(=O)N(C)C[C@H]2Oc3ccc(NS(=O)(=O)c4cccs4)cc3C(=O)N([C@H](C)CO)C[C@@H]2C)cc1 | i | / | 2.5 | -12 | / | -1&0 | 11&14 | -0.3&-4.0 | -3.1&-2.1
CCCCC(O)(c1ccccc1)C(CN1CCOCC1)c1ccccc1 (stereo not drawn) | i | 0.66 | 1.0 | -13 | 4% | -19 | -16 | -3.2 | 3.5
Cc1nc2ccccc2c(=O)n1-c1ccc(NS(=O)(=O)c2ccc(F)cc2)cc1 | i | 0.7 | 1.4 | -6 | 6% | -1 | -8 | 5.6 | 2.0
CCC(=O)Nc1ccc2c(c1)C(=O)N(C)C[C@@H](OC)[C@H](C)CN(Cc1ccccc1F)[C@@H](C)CO2 | i | / | / | / | / | -7 | -12 | 8.0 | 30*
CN1CCN(C(=O)C2=C[C@@H](c3ccc(Br)cc3)C[C@@H](OCc3ccc(CO)cc3)O2)CC1 | i | / | -2.3 | -1 | 16% | -3 | -6 | 3.7 | 1.5
CCOC(=O)C1=CCN(S(=O)(=O)c2ccc(C)cc2)C1c1ccc(Cl)cc1 (stereo not drawn) | i | / | 2.9 | / | / | -10 | -33 | -6.2 | 0.0
CO[C@H]1CN(C)C(=O)c2cc(NC(=O)c3cnccn3)ccc2OC[C@H](C)N(C(C)=O)C[C@H]1C | i | / | / | / | / | 1 | 7 | 0.4 | -4.5
Cc1noc(C)c1NC(=O)Nc1ccc2c(c1)CC(=O)N([C@H](C)CO)C[C@@H](C)[C@@H](CN(C)C(=O)Nc1ccc(F)cc1)O2 | i | / | / | / | / | 6 | 4 | 1.6 | 2.2
COc1ccc(-c2csc(NC(=O)c3ccc(OCC(=O)N4CCOCC4)c(OC)c3)n2)cc1 | i | 0.75 | 3.2 | 16 | 8% | -37 | -52 | -7.0 | 5.2
COc1ccc(N(C)S(=O)(=O)c2ccc3c(c2)CCC(=O)N3)cc1 | i | 0.68 | 5.5 | -8 | 4% | 0 | -8 | -4.5 | 5.6
CC(C)NC(=O)N(C)C[C@@H]1Oc2ccc(N(C)C)cc2C(=O)N([C@@H](C)CO)C[C@H]1C | i | / | / | / | / | 1 | -3 | -1.7 | -4.0
Cc1cc(NC(=O)CCS(=O)(=O)c2ccc3c(c2)NC(=O)C(C)S3)ccc1Br (stereo not drawn) | / | 0.7 | 1.0 | 0 | 9% | / | / | / | /
CO[C@H](CN(C)Cc1nccs1)[C@H](C)CN([C@@H](C)CO)S(=O)(=O)c1ccc(F)cc1 | i | / | / | / | / | 0 | -5 | 1.0 | -0.7
Cc1cc(C)c(C(=O)CC(=O)c2cccnc2)c(C)c1 | i | 0.67 | 2.8 | / | 8% | -52 | -68 | -16 | 0.7
O=C(NCc1cccs1)c1cc(-c2ccccc2)nn1CC1CC(c2cccnc2)=NO1 (stereo not drawn) | / | 0.7 | 3.2 | -3 | / | / | / | / | /
Cc1ccc2c(NCc3ccco3)nc(NC(C)C)nc2c1 | i | / | -0.7 | / | / | -9 | -8 | 5.1 | 24
O=C(O)CCC(=O)N1N=C(c2ccccc2)CC1c1ccc2c(c1)OCO2 (stereo not drawn) | i | 0.68 | -0.9 | -9 | / | 7 | -5 | 2.1 | 2.2
O=C1c2ccccc2C(=O)N1CCCCn1c(=O)oc2ccccc21 | / | 0.68 | 3.8 | 2 | 1% | / | / | / | /
CSc1ncc(C(=O)Nc2cccc(Cl)c2C)c(C)n1 | i | 0.67 | 2.9 | -6 | -17% | 5 | 10 | -2.9 | -2.4
CC(=O)Nc1ccc(S(=O)(=O)NCCC(=O)OCc2csc(CC(=O)Nc3ccccc3C)n2)cc1 | i | 0.64 | 1.9 | -3 | -12% | 9 | 9 | 1.3 | -24
CCCS(=O)(=O)N1CCN(C(=O)COc2ccccc2)CC1 | / | 0.67 | 0.8 | 17 | 27% | / | / | / | /
CC(=O)Nc1nc(C)c(-c2csc(Nc3ccc(S(N)(=O)=O)cc3)n2)s1 | i | 0.73 | 1.5 | -1 | -5% | -18 | -14 | -1.5 | 1.5
CN(C)C(CNc1nnnn1-c1ccccc1)c1ccco1 (stereo not drawn) | / | 0.69 | -0.6 | 0 | 23% | / | / | / | /
CCN(c1ccccc1)c1ncnc2c1cnn2-c1ccccc1 | i | 0.75 | 0.0 | -8 | 7% | -4 | -22 | 5.6 | 28*
O=C(c1cccs1)N1CCC(c2nc(-c3ccc(S(=O)(=O)N4CCOCC4)cc3)no2)CC1 | / | 0.74 | 26 | -27 | -1%&3% | / | / | / | /
Cc1noc(C)c1NC(=O)N[C@H]1C=C[C@@H](CC(=O)N2CCN(C)CC2)O[C@H]1CO | i | / | / | / | / | 1 | 5 | -3.5 | -5.3
COc1cc(-c2nc3n(c(=O)c2C#N)CCS3)cc(OC)c1OC | i | 0.67 | -0.3 | 14 | / | -7 | 0 | 0.1 | 0.9
Cc1cccc(-c2nc(CN3CCCC(C(=O)NC4CCC(C)CC4)C3)c(C)o2)c1 (stereo not drawn) | / | 0.65 | 5.3 | -35 | ? | / | / | / | /
COc1ccc(S(=O)(=O)Nc2ccc3c(c2)C(=O)N([C@H](C)CO)C[C@@H](C)[C@H](CN(C)C(=O)NC2CCCCC2)O3)cc1 | i | / | / | / | / | 0 | 1 | -1.1 | -2.9
COCC(=O)Nc1ccc2c(c1)[C@@H]1C[C@H](CC(=O)NCc3cccc(F)c3)O[C@H](CO)[C@@H]1O2 | i | / | / | / | / | 0 | -4 | 0.2 | -0.5
CCC(=O)Nc1ccc2c(c1)C(=O)N(C)C[C@H](OC)[C@@H](C)CN(C(=O)Cc1cccnc1)[C@@H](C)CO2 | i | / | / | / | / | 0 | 0 | -1.6 | -2.3
O=C(c1cc(COc2ccc(F)c(F)c2)on1)N1CCN(C2CCCCC2)C(=O)C1 | i | 0.7 | -2.8 | 1 | / | -3 | -9 | 3.8 | -3.0
C[C@H]1CCCCO[C@@H](CN(C)C(=O)C2CCCCC2)[C@@H](C)CN([C@@H](C)CO)C(=O)c2cc(NC(=O)CCC(F)(F)F)ccc2O1 | i | / | / | / | / | -1 | 6 | -1.3 | -1.3
O=C(CSc1ncc(-c2ccccc2)n1C1CCCC1)N1CCc2ccccc21 | i | 0.71 | -1.3 | 18 | 17% | -8 | 13 | 4.3 | 7.0
CCOC(=O)/C=C1\SCC(=O)N1CC(=O)NC(C)c1ccc(F)cc1 (stereo not drawn) | i | 0.65 | 13 | / | 29µM* | 3 | 8 | 8.8 | 8.9
C(=C\c1ccccc1)/CSc1nnc(-c2ccccc2)n1Cc1ccco1 | / | 0.67 | -1.5 | 5 | 1% | / | / | / | /
CCCCN1CC(N2CCN(CCO)CC2)CS1(=O)=O (stereo not drawn) | i | / | 4.1 | / | / | 23 | 2 | 3.0 | -0.5
CS(=O)(=O)Nc1ccc2c(c1)[C@H]1C[C@H](CC(=O)NCC3CC3)O[C@H](CO)[C@H]1O2 | i | / | / | / | / | 1 | 6 | 1.8 | -1.7
CCCCN(C)CCCNC(=O)CS(=O)Cc1nc(-c2ccc(OC)c(OC)c2)oc1C (stereo not drawn) | / | 0.68 | 0.0 | 100* | -9%&-12% | / | / | / | /
CC(=O)c1c(C)[nH]c(C(=O)Nc2cccc(S(=O)(=O)N(C)c3ccccc3)c2)c1C | / | 0.67 | -1.0 | 1 | -12% | -25 | -36 | 6.0 | 10
CC(C)Cn1c(SCC(=O)c2ccc(Cl)s2)nnc1-c1ccco1 | / | 0.66 | 1.9 | 48 | ? | / | / | / | /
C[C@H](CO)N1C[C@H](C)[C@@H](CN(C)CC2CC2)Oc2c(NC(=O)c3ccncc3)cccc2C1=O | i | / | / | / | / | -3 | -6 | -1.7 | -0.9
CN1c2ccsc2C(O)=C(C(=S)Nc2ccc(F)c(Cl)c2)S1(=O)=O | / | 0.7 | 4.7 | 18 | 1.1µM* | / | / | / | /
O=S(=O)(c1ccccc1)N1CCN=C1SCc1cccc(Cl)c1 | i | 0.73 | -4.5 | 6 | / | -23* | -14* | -1.8* | 1.1
O=C(Cc1ccccc1)Nn1c(-c2ccccc2F)nc2ccccc2c1=O | i | 0.66 | -6.7 | -7 | 12% | 6 | 1 | 1.7 | -0.8

Entries from the list above that contain a cyano group:
SMILES | FGF22 binding | Ecoli growth | HNF4A DNA FP | ALR inh | Vif A3G | rRNA inh HTS | rRNA inh HTS OD600 | rRNA inh HTS RFP | MLL AF4-AF9 inh
CO[C@H]1CC[C@H]2CCN(C)C(=O)[C@@H](C)[C@H](OC)CN(C)C(=O)c3cc(C#N)ccc3OC[C@H]1O2 | i | / | / | / | / | 1 | 6 | -1.9 | -1.6
COc1cc(-c2nc3n(c(=O)c2C#N)CCS3)cc(OC)c1OC | i | 0.67 | -0.3 | 14 | / | -7 | 0 | 0.1 | 0.9

Reformatted field by field: part of the list above
Structure: O=C(c1cc(COc2ccc(F)c(F)c2)on1)N1CCN(C2CCCCC2)C(=O)C1
  FGF22 binding: i; Ecoli growth: 0.7; HNF4A DNA FP: -2.8; ALR inh: 1; Vif A3G: /; rRNA inh HTS: -3; rRNA inh HTS OD600: -9; rRNA inh HTS RFP: 3.8; MLL AF4-AF9 inh: -3.0
Structure: C(=C\c1ccccc1)/CSc1nnc(-c2ccccc2)n1Cc1ccco1
  FGF22 binding: /; Ecoli growth: 0.67; HNF4A DNA FP: -1.5; ALR inh: 5; Vif A3G: 1%; rRNA inh HTS: /; rRNA inh HTS OD600: /; rRNA inh HTS RFP: /; MLL AF4-AF9 inh: /
Structure: CCC(=O)Nc1ccc2c(c1)C(=O)N(C)C[C@H](OC)[C@@H](C)CN(C(=O)Cc1cccnc1)[C@@H](C)CO2
  FGF22 binding: i; Ecoli growth: /; HNF4A DNA FP: /; ALR inh: /; Vif A3G: /; rRNA inh HTS: 0; rRNA inh HTS OD600: 0; rRNA inh HTS RFP: -1.6; MLL AF4-AF9 inh: -2.3

An excerpt; rates above refer to the full screens.
